Screening data deposited in PubChem by National Center for Advancing Translational Sciences (NCATS).
TRPML1 inh: human mucolipin-1 channel inhibition | TRPML1-inducible cells, Ca2+ dye fluorescence, FDSS; hits give low values; inhibition of EC80 agonist-evoked calcium signal | activity change, negative = inhibition, % (concentration not given with the values) | actives 0.02% (n = 390,000); in the data active means activity change below about -50%; inconclusive means about -30% to -50%; inactive means above about -30%;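 further: stimulus is agonist 54-4 at its EC80 concentration; on the % scale 0 is the no-effect control and ±100 the full control effect; compound concentration not given in the record; the text of the record puts the active cut at -80%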
Target sequence (Q9GZU1 whole entry, looked up): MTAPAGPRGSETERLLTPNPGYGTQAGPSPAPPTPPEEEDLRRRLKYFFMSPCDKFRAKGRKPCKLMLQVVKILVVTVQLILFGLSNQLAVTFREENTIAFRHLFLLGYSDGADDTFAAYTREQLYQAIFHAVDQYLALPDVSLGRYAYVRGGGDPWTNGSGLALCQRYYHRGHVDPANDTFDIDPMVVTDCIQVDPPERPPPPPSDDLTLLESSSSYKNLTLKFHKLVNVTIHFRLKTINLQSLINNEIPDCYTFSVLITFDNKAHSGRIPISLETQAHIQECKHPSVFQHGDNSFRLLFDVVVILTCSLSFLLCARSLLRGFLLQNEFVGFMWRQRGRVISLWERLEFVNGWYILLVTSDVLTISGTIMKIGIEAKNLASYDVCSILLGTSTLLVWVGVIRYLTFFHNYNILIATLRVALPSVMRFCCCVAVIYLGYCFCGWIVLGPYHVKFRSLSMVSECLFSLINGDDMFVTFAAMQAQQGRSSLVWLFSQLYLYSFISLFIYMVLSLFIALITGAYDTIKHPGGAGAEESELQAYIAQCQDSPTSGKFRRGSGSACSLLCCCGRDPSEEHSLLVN
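Tet-induced TRPML1-DL cells loaded with Ca8 no-wash calcium dye were read kinetically on FDSS. Compound addition was followed by EC80 agonist 54-4 (4 uM final); inhibition was read over 110 s.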
gsp agonist: gsp mutant agonism. gsp mutant cells, cAMP HTRF, 30 min; control for the full effect not named in the record. Potency, µM (series often up to 76.9 µM), for the others: top-dose activation (cAMP increase), hits mostly activators. actives 0.13% (n = 340,000); active = well fitted activation curve with a large enough effect; inconclusive = small, poorly fitted or top-dose-only effect, or another doubt; inactive = no such curve, though single readings can be large or run the other way; cell line not stated here;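 further: phosphodiesterase inhibitor Ro 20-1724 added with compounds to block cAMP breakdown; potency means the concentration at half of the fitted maximal effect; nearly all actives have a fitted effect of over 60% in size; about a fifth of the inactives were tested at one dose only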
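Cells in DMEM/10% FBS with G418 were pretreated with compounds in DMSO plus […] (300 uM stock) for 30 min at 37C. cAMP was measured by HTRF (cAMP-d2 plus anti-cAMP antibody-K) after 30 min at room temperature.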
TRPV1 potentiator: potentiators of human vanilloid receptor 1 (TRPV1); Q8NER1; TRPV1-expressing cells, Fluo-8 calcium influx, capsaicin EC20 potentiation; host cell line not named in the record; control for the full effect not named in the record; potentiation, % at 8.33 µM; actives 0.02% (n = 320,000); active means potentiation above 80%; inconclusive means 30% to 80%; inactive means below 30%; further: 0% is about no effect
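Cells expressing TRPV1 were dye-loaded with Fluo-8 and read kinetically: 10 s baseline, 3 min after compound (agonist portion), then 2 min after EC20 capsaicin (allosteric enhancer portion). Calcium-bound dye fluorescence at 480/520 nm.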
gsp antag: gsp mutant antagonism. Potency, µM (top dose mostly 76.9 µM), for inactives: at the highest dose activity change, negative = inhibition, most hits filed as inhibitors. gsp-mutant cells, cAMP HTRF, 30 min; control for the full effect not named in the record. actives 0.4% (n = 340,000); active = falling curve of any shape with a large fitted effect; inconclusive = falling curve, mostly with a smaller effect; inactive = flat or rising curve; cell line not stated here;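 further: intracellular cAMP measured with PDE inhibitor Ro 20-1724 present during compound exposure; potency means the concentration at half of the fitted maximal effect; on the % scale 0 is the no-effect control and ±100 the full control effect; nearly all actives have a fitted effect of over 65% in size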
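Measurement of cellular cAMP by homogeneous time-resolved fluorescence following a 30 min compound exposure at 37C. The PDE inhibitor […] was present throughout; the assay buffer was DPBS with 0.05% BSA and 0.005% Tween 20.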
Menin-MLL FL inh: menin-MLL binding inhibition, fluorescein peptide. Fluorescence polarization, fluorescein-MLL peptide displacement from menin. FP activity change, % at 61.4 µM. 290,000 tested, under 10 active; inconclusive = falling polarisation curve, or a change in total fluorescence; inactive = total fluorescence flat and polarisation flat or rising; no compound was filed as active; the % refers to the polarisation; negative = inhibition;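 further: % of control where 0% means no effect; inhibitors lower the polarisation; unlabelled MLL peptide was the positive control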
Sfp PPTase inh: blocks B. subtilis Sfp PPTase activity; Potency, µM, for inactives: max response, negative = inhibition, most hits filed as inhibitors; Biochemical Sfp PPTase activity, qHTS; actives 3.5% (n = 310,000); Q9F4F7; active means well fitted inhibition curve with a large enough effect; inconclusive means small, poorly fitted or top-dose-only effect, or another doubt; inactive means no such curve, though single readings can be large or run the other way;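 further: the enzyme is Sfp with the accession as filed and its product quenches rhodamine fluorescence; potency means the concentration at half of the fitted maximal effect; 0% = enzyme reaction without inhibitor and -100% = no enzyme wells; top concentration of the series not given in the record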
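After 15 min at room temperature with compound, 15 nM Sfp received 5 uM rhodamine-CoA plus 12.5 uM BHQ-2-ybbR (50 mM Hepes pH 7.6, 10 mM MgCl2). Rate came from the fluorescence difference over 30 min, ex 525/em 598 nm.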
ClpP mod: qHTS Assay for Activators of ClpP | ATP-dependent Clp protease proteolytic subunit (Bacillus subtilis (strain 168)), P80244 | purified B. subtilis ClpP, FRET peptide cleavage, 20 min | Potency, µM (titrated, usually from 57.5 µM), without a hit: at the highest dose activity change, negative = active | actives 1.9% (n = 340,000) | AID 651965, 2013; active = well fitted falling curve with a large enough effect; inconclusive = small, poorly fitted or top-dose-only effect; inactive = no such curve, though single readings can be large or run the other way; further: potency means the concentration at half of the fitted maximal effect; the source files actives as falling curves though it sought activators and does not explain the sign; nearly all actives have a fitted effect of over 65% in size; many hits overshoot -100%
Target sequence (P80244 whole entry, looked up): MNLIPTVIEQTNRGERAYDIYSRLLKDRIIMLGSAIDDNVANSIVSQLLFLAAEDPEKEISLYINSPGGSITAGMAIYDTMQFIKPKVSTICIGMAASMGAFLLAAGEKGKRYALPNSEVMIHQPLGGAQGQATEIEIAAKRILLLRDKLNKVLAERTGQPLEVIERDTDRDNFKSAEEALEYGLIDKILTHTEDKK
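ClpP 10 microg/mL final, pH 8 Tris/KCl buffer with BSA, glycerol, Tween-20; compound pinned in; FRET-FV substrate; RT 20 min; Ex320/Em430; ΔFRET vs ADEP 5.8 microM, DMSO, no enzyme.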
* marks the source's active call; other numbers are inactive results; ? = inconclusive; · = no result given; [ ] = dose if it differs, or a comment.

SMILES	TRPML1 inh	gsp agonist	TRPV1 potentiator	gsp antag	Menin-MLL FL inh	Sfp PPTase inh	ClpP mod
NC(=O)c1ccccc1NC(=O)/C=C/C(=O)O	-3	2%	-6	7%	3.9	16%	?
COc1ccc(CN(C(=O)c2cc(=O)c3cc(C)cc(C)c3o2)C2CCS(=O)(=O)C2)cc1 (stereo not given)	14	-17%	-3	3%	-1.3	-2%	-2.7%
CN(Cc1ccccc1)C(=O)c1[nH]cnc1C(=O)NCCCCCNC(=O)OC(C)(C)C	21	-17%	-5	9%	·	·	-2.3%
O=C(c1ccc(C(=O)N2CCCc3ccccc32)s1)N1CCCc2ccccc21	-1	-2%	-10	-11%	0.1	-16%	0.7%
O=C(CCn1c(=O)c2ccccc2n(CC(=O)NC2CCCC2)c1=O)NCCc1ccc(Cl)cc1	13	-29%	3	7%	0.4	9%	-9.2%
Cc1cccc(-c2nc(CS(=O)CC(=O)NCC3CCCO3)c(C)o2)c1 (stereo not given)	5	0%	-4	8%	3.3	?	-6.5%
Cc1cccc(NS(=O)(=O)c2ccc3c(c2)OCCO3)c1	-13	22%	-5	-15%	2.8	-1%	-0.6%
COc1ccccc1N(C)S(=O)(=O)c1ccc(C(=O)Nc2ccc(C)cc2C)cc1	5	3%[15.4 µM]	-12	-9%	·	·	1.2%
O=C(O)c1cc(N=Cc2c(O)c3ccccc3oc2=O)ccc1O	·	13%	7	-5%	-1.4	?	-8.7%
Cc1ccccc1-c1ccc(C(=O)NCc2ccccc2)o1	22	-9%	9	-4%	-2.1	-12%	4.4%
CCc1[nH]nc(C(=O)N2CCCC(CO)(Cc3ccc(F)cc3F)C2)c1C (stereo not given)	-1	?	-14	-4%	·	5%	-0.4%
CN(Cc1ccncc1)C1CC(=O)N(c2ccc(Cl)cc2)C1=O (stereo not given)	20	-33%	16	0%	-2.8	2%	-13%
Cc1ccc(C(=O)NNC(=O)c2ccccc2)cc1S(=O)(=O)N1CCCCC1	25	-53%[inhibitor]	14	-1%	·	·	0.5%
OCCOCCNc1ncnc2nc[nH]c12	-14	15%	-7	6%	-0.5	6%	1.2%
COc1ccc(/C=C2\CCCCC2=O)cc1	19	2%[15.4 µM]	·	0%	·	·	·
CS(=O)(=O)c1ccc(Cl)c(NC(=O)c2cccc(N3C(=O)CCC3=O)c2)c1	-9	-7%	13	10%	·	·	1.4%
CC(=O)c1cccc(NC(=O)CCS(=O)(=O)c2cccc3nonc23)c1	4	27%	2	-9%	3.4	19%	-5.7%
COC(=O)c1cc(S(=O)(=O)NC2CCCCC2)cn1C	52	4%	1	4%	·	17%	2.3%
O=C(O)c1cc(Sc2ccc(Br)cc2)nc2ccccc12	-16	7%	5	2%	-0.4	23%	-3.4%
C(=N\n1cnnc1)/c1ccc2c(c1)OCCO2	27	-24%	7	-1%	-1.3	8%	?
C=CCn1c2ccccc2c2nnc(SCC(N)=O)nc21	-5	?	3	-4%	-1.7	2%	-0.9%
Cc1ccc(-c2nc3ccc(Cl)cc3c(=O)n2O)cc1	-2	7%[15.4 µM]	-2	-4%	-14	13%	·
C[C@H](CO)N1C[C@H](C)[C@@H](CN(C)C)Oc2c(NC(=O)CCCCCC(=O)Nc3ccccc3N)cccc2C1=O	-3	-19%	·	-10%	·	·	-0.3%
Cc1ccc(C(=O)c2c3ccccc3[n+]([O-])n2[C@@H](C)C(N)=O)cc1	0	·	-10	2%	·	·	1.4%
O=S(=O)(c1ccc(OC(F)(F)F)cc1)N1CCCC(c2ccccc2)C1 (stereo not given)	14	-13%	26	-2%	-3.4	8%	-2.1%
O=C1CC(/C=C/c2ccccc2)(C(=O)NC2CCCC2)N1c1ccc(S(=O)(=O)N2CCCC2)cc1 (stereo not given)	6	5%	12	-1%	2.5	9%	-3.6%
CCC(=O)N1CCN(c2ccc(NC(=O)COc3ccccc3[N+](=O)[O-])cc2)CC1	4	14%	?	?	-0.3	7%	1.4%
COC(=O)c1ccc(CNC(=O)COC(=O)c2cccs2)cc1	17	-24%	·	1%	·	·	-19%
CN(C)Cc1c(C(=O)N/N=C/c2ccco2)nnn1-c1nonc1N	-16	16%[15.4 µM]	-4	-7%	-2.1	5%	-0.1%
N#Cc1ccsc1NC(=O)COC(=O)CCS(=O)(=O)c1ccccc1	7	-42%[inhibitor]	·	-13%	·	·	·
O=C1c2ccccc2S(=O)(=O)N1Cc1cc(=O)n2ccsc2n1	-7	20%	3	4%	-0.3	9%	-2.0%
CC(C)c1nc2sc3c(NCc4ccccc4)ncnc3c2c2c1COC(C)(C)C2	-4	?	-4	-7%	4.1	17%	-22%
COc1ccc(CN(CC(=O)NCC2CCCO2)C(=O)CCC(=O)Nc2cc(C)on2)cc1 (stereo not given)	-10	4%	-7	1%	0.6	8%	-1.9%
CC(C)CC1=NN(C(=O)c2ccco2)C(O)(C(F)(F)F)C1 (stereo not given)	16	13%	10	15%	-2.7	7%	·
Cc1ccc(NS(=O)(=O)c2cccc([N+](=O)[O-])c2)nc1	-6	0%[15.4 µM]	24	5%	1.4	-1%	·
O=C(O)/C=C\C(=O)Nc1cccc(NC(=O)c2ccccc2)c1	23	-66%[inhibitor]	1	2%	0.1	-10%	·
Cc1ccc(CNC(=O)c2cccnc2Cl)cc1	3	-12%	-7	7%	-4.2	1%	·
COc1ccc(-c2ccc3nnc(SCC(=O)NCC4CCCO4)n3n2)cc1 (stereo not given)	1	?	24	13%	·	·	?
COc1ccc(Br)cc1-c1noc(-c2ccccc2F)n1	8	-7%	0	-6%	-2.2	28%	-23%
O=C(NCc1ccco1)c1ccc(N2CCCCC2)c([N+](=O)[O-])c1	-1	1%[15.4 µM]	-8	-3%	3.5	-9%	-2.2%

Six compounds drawn at random from the list so far, as already listed:
SMILES	TRPML1 inh	gsp agonist	TRPV1 potentiator	gsp antag	Menin-MLL FL inh	Sfp PPTase inh	ClpP mod
CN(Cc1ccncc1)C1CC(=O)N(c2ccc(Cl)cc2)C1=O (stereo not given)	20	-33%	16	0%	-2.8	2%	-13%
CCc1[nH]nc(C(=O)N2CCCC(CO)(Cc3ccc(F)cc3F)C2)c1C (stereo not given)	-1	?	-14	-4%	·	5%	-0.4%
Cc1ccc(C(=O)c2c3ccccc3[n+]([O-])n2[C@@H](C)C(N)=O)cc1	0	·	-10	2%	·	·	1.4%
Cc1ccc(C(=O)NNC(=O)c2ccccc2)cc1S(=O)(=O)N1CCCCC1	25	-53%[inhibitor]	14	-1%	·	·	0.5%
CN(Cc1ccccc1)C(=O)c1[nH]cnc1C(=O)NCCCCCNC(=O)OC(C)(C)C	21	-17%	-5	9%	·	·	-2.3%
CN(C)Cc1c(C(=O)N/N=C/c2ccco2)nnn1-c1nonc1N	-16	16%[15.4 µM]	-4	-7%	-2.1	5%	-0.1%

(listing goes on)
SMILES	TRPML1 inh	gsp agonist	TRPV1 potentiator	gsp antag	Menin-MLL FL inh	Sfp PPTase inh	ClpP mod
COC(=O)C1=C(C)N(Cc2ccccc2)C(=NCCc2cccnc2)N[C@H]1c1ccc(Br)cc1	3	-5%	-10	-1%	-1.1	-8%	-2.0%
CC(C)CC(=O)N1CCN(c2ccc([N+](=O)[O-])cc2Cl)CC1	12	-95%[inhibitor]	-15	-5%	3.8	16%	-0.3%
CC(=O)N1CCOc2ccc(S(=O)(=O)N3CCC(C(=O)NCc4ccc(C)cc4)CC3)cc21	-4	16%	4	-1%	-0.2	0%	-1.2%
CC(=O)N(CC(C)C(=O)O)c1c(I)cc(I)c(N)c1I (stereo not given)	10	·	3	-13%	·	·	0.6%
O=C(O)CCC(=O)Nc1ccc(SSc2ccc(NC(=O)CCC(=O)O)cc2)cc1	12	7%[15.4 µM]	-3	0%	·	18µM*	-3.0%
CC(=O)N1C=Cc2c(c(C)c3c([nH]c4ccccc43)c2C)C1	·	·	19	·	?	?	·
CNC(=O)c1sc(-c2ccc(Cl)cc2)nc1C	-10	20%	1	-11%	2.8	-2%	-23%
CCCCc1ccc(S(=O)(=O)Nc2cc(C)on2)cc1	-7	14%	-4	-3%	-1.9	14%	1.1%
CC(C)Cc1nc2sc3c(SCC(N)=O)ncnc3c2c2c1CCC2	-7	3%	18	23%	3.6	9%	-1.5%
NNC(=O)c1[nH]c2ccc(Cl)cc2c1-c1ccccc1	45	5%[15.4 µM]	3	24%	0.7	-10%	-0.9%
O=C(Nc1cccc(S(=O)(=O)N2CCCCCC2)c1)C1CCN(C(=O)c2ccc(Cl)cc2)CC1	2	-11%[15.4 µM]	2	-21%	·	·	·
O=C(c1ccc2c(c1)OCCCO2)N1CCCCC1	-1	22%	10	11%	0.7	16%	1.6%
COc1ccc(/C=C/CN2CCC(CO)(Cc3ccccc3Cl)CC2)cc1	17	0%[15.4 µM]	4	·	3.8	-6%	·
O=C(COC(=O)CCNS(=O)(=O)c1ccccc1)Nc1ccc(OC(F)F)cc1	-2	-9%	-1	-15%	·	·	0.5%
CCOc1ccc(N(CC(=O)Nc2ccc(C)c(C)c2)S(=O)(=O)c2c(C)[nH]c(=O)[nH]c2=O)cc1	-3	-9%[15.4 µM]	-1	-13%	5.0	8%	·
OCC1(Cc2ccccc2)CCN(C2CCN(c3ccc(F)c(F)c3)CC2)CC1	51	-5%[15.4 µM]	-9	5%	-0.1	25%	·
Cc1cccc(C)c1OCCN1CCCC1	-2	-1%	-1	11%	-7.3	2%	1.2%
Cc1ccc2n(n1)c(=O)c(Cc1ccccc1)c([O-])[n+]2-c1ccccc1	16	-1%	2	-11%	0.5	0%	0.6%
CCCC(=O)NCCc1nc2ccccc2n1CC(=O)c1ccccc1	-8	13%[15.4 µM]	-13	-7%	11	4%	2.1%
CCc1ccc(NC(=O)CSc2nnc(-c3cnccn3)n2C)cc1	1	-22%	20	3%	·	15%	-0.8%
Cc1c(C#N)c(O)n(CCO)c(=O)c1N=Nc1ccc2c(c1)COC2=O	53	1%[15.4 µM]	?	-27%	?	12%	-1.7%
